# PINK1 expr mod – PINK1 expression modulation; PINK1 immunofluorescence, high-content cytometry, 24 h; Potency, µM (top dose mostly 76.6 µM), inactives show at the top dose activation (PINK1 increase), hits mostly activators; hit rate 0.2% among 410,000; active = well fitted activation curve with a large enough effect; inconclusive = small, poorly fitted or top-dose-only effect; inactive = flat fitted curve, though single readings scatter; cell line not stated here;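 also: potency is read from the fitted curve at half-maximal effect; % of control where 0% means no effect; nearly all actives have a fitted effect of over 65% in size; a mitochondrial uncoupler was the plate control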
#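 Stable cell line, 250 cells/well, 12 h attachment; compounds pinned at 5 concentrations, 24 h; CCCP control. Fixed with nuclear dye, primary antibodies 12 h at 10 degrees C, secondary plus cell stain; laser-scanning cytometer read.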
# TRPML1 agonist – human mucolipin-1 channel agonism; Q9GZU1; TRPML1-expressing cells, Ca2+ dye fluorescence, FDSS; host cell line not named in the record; reference of the full effect not given here; activation, % (no concentration beside the values); hit rate 0.12% among 410,000; AID 624414; in the data active = activation above about 50%; inconclusive = about 30% to 50%; inactive = below about 30%; also: 0% is about no effect; the text of the record puts the active cut at 80%
# Target sequence (Q9GZU1 whole entry, looked up): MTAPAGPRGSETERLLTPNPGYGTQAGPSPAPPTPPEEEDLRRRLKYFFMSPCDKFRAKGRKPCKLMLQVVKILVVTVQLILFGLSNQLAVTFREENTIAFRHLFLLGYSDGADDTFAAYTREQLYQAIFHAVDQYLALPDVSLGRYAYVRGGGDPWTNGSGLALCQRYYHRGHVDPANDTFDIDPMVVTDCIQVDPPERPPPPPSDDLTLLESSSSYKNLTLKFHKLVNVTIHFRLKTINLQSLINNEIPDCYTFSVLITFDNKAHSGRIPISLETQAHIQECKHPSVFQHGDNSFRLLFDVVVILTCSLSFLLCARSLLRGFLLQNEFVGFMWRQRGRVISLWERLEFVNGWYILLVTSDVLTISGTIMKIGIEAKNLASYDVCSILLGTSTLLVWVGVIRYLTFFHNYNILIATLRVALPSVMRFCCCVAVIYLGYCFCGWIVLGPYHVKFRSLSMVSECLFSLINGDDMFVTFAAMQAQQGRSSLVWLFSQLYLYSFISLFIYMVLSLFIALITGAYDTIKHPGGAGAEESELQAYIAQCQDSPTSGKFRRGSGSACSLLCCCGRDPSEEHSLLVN
#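 Tetracycline-induced TRPML1-DL cells are seeded and incubated overnight before loading with a no-wash Ca2+ dye and quencher. Agonist activity is taken from the 110 s fluorescence read following compound pin-transfer on an FDSS, before EC80 54-4 challenge.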
# * = called active by the depositor; ? = inconclusive. The list is partial (hit frequency here may not be typical).
SMILES,PINK1 expr mod,TRPML1 agonist
Cc1ccc(-n2ncc3c(N4CCN(Cc5ccccc5)CC4)ncnc32)cc1,2.6%,0.4
CC(C)CCNC(=O)c1cc(-c2ccc(Br)s2)nc2ccccc12,1.4%,-0.1
Oc1c(C(c2ccccc2)N2CCC3(CC2)OCCO3)sc2nc(-c3ccco3)nn12 (stereo not drawn),-0.2%,0.7
COc1ccc(C(=O)NCc2nnc(SCC(=O)Nc3ccc(F)cc3)n2-c2ccccc2)cc1,2.2%,-1.0
COc1ccc(CCNC(=O)Cn2nc(-c3ccc(Cl)cc3)ccc2=O)cc1OC,0.3%,0.9
CCN(CC)c1cc(NC2CCCCC2)c2c3c(onc13)-c1ccccc1C2=O,1.3%,1.9
COc1ccc(-c2noc(CNS(=O)(=O)c3ccc(Br)cc3)n2)cc1OC,2.4%,-0.5
CCOc1cc(C2C(C(=O)OC)=C(C)NC3=C2C(=O)c2ccccc23)c(Br)cc1OC (stereo not drawn),1.0%,1.9
CCOc1ccc(Nc2oc(-c3ccc(COc4ccc(OC)cc4)o3)nc2C#N)cc1,2.3%,0.0
CCCCOC(=O)c1ccc(Nc2ncnc3c2cnn3-c2cccc(C)c2)cc1,-0.1%,-0.2
Cc1ccc(CNC(=O)C2CCN(c3nn4cc(-c5ccc(F)cc5)nc4s3)CC2)cc1,-0.7%,0.6
Nc1c(C(=O)Nc2ccc(OC(F)(F)F)cc2)nnn1Cc1ccccc1,2.3%,2.2
COc1ccc(Cl)cc1NC(=O)c1c(NCc2cccs2)sc2c1CCC(C)C2 (stereo not drawn),0.2%,-0.4
CC(=O)NCCNc1nc2c(-c3ccc(C)cc3)nnn2c2ccccc12,0.1%,-1.0
O=C(C[n+]1cccc2cccc(O)c21)c1ccc2ccccc2c1,0.7%,1.3
Cc1ccc(OCCCCn2nnc3sc4c(c3c2=O)CCC(C)C4)cc1 (stereo not drawn),1.2%,1.4
Cc1ccc(CNC(=O)c2ccc(CSCc3ccccc3C)o2)cc1,1.7%,4.9
C[n+]1cccc(Br)c1,0.6%,-0.6
CCN(CC)c1ccc(C2C(C(=O)Nc3ccccc3C)=C(C)Nc3ncnn32)cc1 (stereo not drawn),-4.3%,1.1
Cc1ccc(S(=O)(=O)c2nnn3c2nc(NCc2ccc(F)cc2)c2sccc23)cc1C,1.3%,1.1
CN(Cc1ccccc1)S(=O)(=O)c1ccc(F)c(C(=O)Nc2ccccc2C(F)(F)F)c1,2.3%,3.8
CCOc1ccccc1CNC(=O)C1CCN(S(=O)(=O)c2ccc3[nH]c(=O)ccc3c2)CC1,-4.1%,1.0
COc1ccc(-n2nc3ccc(NC(=O)c4ccc(C#N)cc4F)cc3n2)cc1Cl,0.2%,-0.3
CCC(C)NC(=O)c1ccc2c(c1)N(Cc1cccc(Cl)c1)C(=O)c1ccccc1S2=O (stereo not drawn),2.6%,0.5
CCOC(=O)c1sc2ncn(CC(=O)Nc3cc(Cl)ccc3C)c(=O)c2c1C,1.2%,-0.8
# (cont.)
SMILES,PINK1 expr mod,TRPML1 agonist
Cc1cccc(NC(=O)c2ccc(-c3ccccc3)s2)c1,1.6%,2.1
COCCCNC(=O)C1CCC(Cn2c(=O)c3sccc3n(C)c2=O)CC1 (stereo not drawn),-0.6%,0.0
O=C(CSc1nc(=O)n(CCN2CCOCC2)c2c1CCC2)Nc1ccc(F)cc1F,-0.8%,-0.3
CCOC(=O)c1c(NC(=O)c2cc(-c3ccccc3OC)on2)sc(C)c1C,-0.8%,1.8
COc1ccccc1CNC(=O)c1cc2cc(C)ccc2n1C,1.5%,-0.4
CCN(CC)c1ccc(-n2nc3cc(C)c(NC(=O)c4ccccc4C)cc3n2)c(C)c1,-0.7%,1.5
Nc1ccc(/C=C/c2nccc3ccccc23)cc1,1.0%,3.2
COc1ccc(CNC(=O)C2CCCN(C(=O)c3cnn(-c4ccc(F)cc4)c3-n3cccc3)C2)cc1 (stereo not drawn),-0.5%,1.6
CC(=O)N1CCC2(CC1)OC(=O)C(C)=C2C(=O)NCc1cccc(Cl)c1,-0.1%,-0.5
Cc1cc(Cl)ccc1NC(=O)CCS(=O)(=O)c1cc2c(cc1C)NC(=O)CO2,2.4%,0.2
CCc1ccccc1NC(=O)CN1C(=O)CCSc2ccc(S(=O)(=O)N3CCCC3)cc21,-0.4%,1.2
CC(=O)c1ccc(NC(=O)CSc2nnc(NC(=O)Nc3ccccc3)s2)cc1,-0.1%,-0.6
CCOC(=O)c1cccc(NC(=O)C2CCCN(S(=O)(=O)c3cc(Br)cc4c3N(C(=O)CC)CC4)C2)c1 (stereo not drawn),-0.5%,-0.7
COc1ccc(NC(=O)CCS(=O)(=O)c2ccc3nc(C)sc3c2)cc1Cl,8.0%,0.2
O=C(Nc1sc2c(c1C(=O)Nc1ccc(Cl)cc1)CCCC2)c1cccs1,3.4%,-0.2
COc1ccc(-c2cc(C(=O)Nc3cc(C)ccc3O)no2)cc1OC,3.8%,-0.7
Cc1ccccc1C(=O)NC1(C(F)(F)F)C(=O)Nc2c1c(=O)[nH]c(=O)n2-c1ccc(F)cc1 (stereo not drawn),-0.2%,-0.8
COc1ccc(N2CC(NC(=O)C3CCCCC3)CC2=O)cc1 (stereo not drawn),0.0%,-0.4
Cc1ccc(C)c(Cn2c(=O)n(-c3ccc(Cl)cc3)c(=O)c3c4c(sc32)CCC4)c1,1.8%,-0.1
Cc1cc(O)c(CN2CCN(c3ccc(F)cc3)CC2)c2oc(=O)cc(C)c12,0.2%,0.6
Cc1nn(-c2ccccc2)c2c1cc1c(=O)n(C)c(=O)nc-1n2-c1cccc(Cl)c1,-0.1%,0.6
CN(C)S(=O)(=O)c1ccc(C(=O)NCCS(=O)(=O)N2CCN(c3ccccc3)CC2)cc1,2.2%,0.6
COc1ccc(CNC(=O)CCc2c(C)c3cc4c(C)c(C)oc4cc3oc2=O)cc1OC,3.0%,0.1
Cc1ccc(OCC(=O)N(Cc2ccc(N(C)C)cc2)CC2CCCO2)cc1C (stereo not drawn),0.8%,1.1
CCOc1cccc2sc(N(Cc3cccnc3)C(C)=O)nc12,-1.8%,2.4

# In the list so far, these contain a cyano group.
SMILES,PINK1 expr mod,TRPML1 agonist
CCOc1ccc(Nc2oc(-c3ccc(COc4ccc(OC)cc4)o3)nc2C#N)cc1,2.3%,0.0
COc1ccc(-n2nc3ccc(NC(=O)c4ccc(C#N)cc4F)cc3n2)cc1Cl,0.2%,-0.3

# New compounds follow
SMILES,PINK1 expr mod,TRPML1 agonist
CCNC(=O)c1ccc(NC(=O)N2CCCCc3ccccc32)cc1,-0.4%,0.3
Cc1cc(NC(=O)c2ccc(Cl)c(Cl)c2)ccc1-c1cc2ccccc2oc1=O,5.3%,-0.7
COc1ccc(Cl)cc1C(=O)Nc1sc2c(c1C(=O)OC(C)C)CCCC2,1.5%,-0.4
Cc1ccc(NC(=O)c2ccc(NC(=O)C3CCCC3)cc2)c(C)c1,0.2%,-0.8
Cc1cccc(N2CCN(S(=O)(=O)c3cn(C)c(C)n3)CC2)c1C,-3.2%,1.0
COc1cc(/C=C(\C#N)c2nc3ccccc3[nH]2)ccc1OCc1ccc(F)cc1,7.4%,0.7
CC(=O)Nc1ccc(NC(=O)CC(C)n2ccc(C)n2)cc1 (stereo not drawn),-0.6%,0.3
CCOCCCNc1nc2c(S(=O)(=O)c3ccc(CC)cc3)nnn2c2ccc(Cl)cc12,-1.2%,1.5
CCc1ccccc1NC(=O)CSc1ncc(S(=O)(=O)c2ccccc2)c(=O)[nH]1,-0.9%,1.2
CCCN(C(=O)c1nn(-c2ccc(OC)cc2)c(=O)c2c1c1ccccc1n2C)c1ccc(CC)cc1,0.8%,2.3
Cc1ccc(NC(=O)C2CCCN(S(=O)(=O)c3ccc4[nH]c(=O)ccc4c3)C2)cc1Cl (stereo not drawn),0.7%,-0.5
O=C(CN1CCCN(Cc2ccccc2Cl)S1(=O)=O)NCc1ccccc1,2.3%,1.1
Cc1ccc(NC(=O)C2CCC(CNS(=O)(=O)c3csc(C(N)=O)c3)CC2)cc1Cl (stereo not drawn),11.2%,-0.5
COC(=O)c1cc2oc3ccccc3c2n1Cc1nc(-c2ccccc2C)oc1C,-0.6%,1.7
COC(=O)c1cccnc1-n1c(=O)c2cccnc2n(CC(=O)Nc2ccc(C)cc2C)c1=O,-0.5%,0.0
COc1ccc(NC(=O)CSc2oc(-c3ccco3)nc2S(=O)(=O)c2ccccc2)c(OC)c1,-0.7%,-0.3
CCOc1ccc(C(=O)Nc2c(C(=O)c3ccc(OC)cc3)oc3ccccc23)cc1,-0.6%,1.5
CC(C)(C)C1CCc2nc(NC(=O)COc3ccc(F)cc3)sc2C1 (stereo not drawn),7.0%,-0.9
Cc1cccc(C(=O)Nc2ccc(N3CCN(c4ccc(F)cc4)CC3)c(C(=O)O)c2)c1,3.5%,-0.3
CCOC(=O)c1c(NC(=O)c2ccc(S(=O)(=O)N(C)C)cc2)sc2c1CCN(C)C2,4.3%,0.6
CCc1ccccc1NC(=O)Cn1c(C(=O)OC)cc2oc(C)cc21,-0.8%,-0.2
COc1ccc(C)cc1NC(=O)C(=O)NCC(c1cccnc1)N1CCc2ccccc21 (stereo not drawn),-0.4%,1.5
Brc1ccc(-c2csc(-c3nc(-c4ccc(Br)s4)cs3)n2)cc1,1.1%,-0.2
CC1CCN(C(=O)CSc2c3c(nc4cc(Cl)ccc24)CCCC3)CC1,15.9%,1.7
COc1ccccc1CCNC(=O)C(C)Sc1nc(-c2ccccc2)cc(C(F)(F)F)n1 (stereo not drawn),2.6%,-0.7

# Record cards, from the list above. Order of values: PINK1 expr mod	TRPML1 agonist
# `CC(=O)Nc1ccc(NC(=O)CC(C)n2ccc(C)n2)cc1` (stereo not drawn) is entered as -0.6%	0.3
# `CCc1ccccc1NC(=O)Cn1c(C(=O)OC)cc2oc(C)cc21` is entered as -0.8%	-0.2

# Taken from above.
# Value for `COc1ccc(C)cc1NC(=O)C(=O)NCC(c1cccnc1)N1CCc2ccccc21` (stereo not drawn) in PINK1 expr mod: -0.4%
# Value for `Cc1ccc(NC(=O)c2ccc(NC(=O)C3CCCC3)cc2)c(C)c1` in TRPML1 agonist: -0.8
# Value for `CCOCCCNc1nc2c(S(=O)(=O)c3ccc(CC)cc3)nnn2c2ccc(Cl)cc12` in PINK1 expr mod: -1.2%
# Value for `COC(=O)c1cccnc1-n1c(=O)c2cccnc2n(CC(=O)Nc2ccc(C)cc2C)c1=O` in PINK1 expr mod: -0.5%

# The main list resumes; the 3 compounds before the break are reprinted first.
SMILES,PINK1 expr mod,TRPML1 agonist
Brc1ccc(-c2csc(-c3nc(-c4ccc(Br)s4)cs3)n2)cc1,1.1%,-0.2
CC1CCN(C(=O)CSc2c3c(nc4cc(Cl)ccc24)CCCC3)CC1,15.9%,1.7
COc1ccccc1CCNC(=O)C(C)Sc1nc(-c2ccccc2)cc(C(F)(F)F)n1 (stereo not drawn),2.6%,-0.7
CCOC(=O)C1=C(CN2CCN(c3ccccc3F)CC2)NC(=O)NC1c1ccc(OC)cc1 (stereo not drawn),9.1%,0.4
CCOC(=O)c1c(NC(=O)COc2ccc(C)cc2C(C)(C)C)sc2c1CCC(C)C2 (stereo not drawn),0.5%,0.4
CCCCN(CCCC)c1ccc(/C=C2\C=Cc3ccccc32)cc1,0.6%,-0.2
Cc1cc2ccccc2n1CCNC(=O)c1cc(C(F)(F)F)cc(C(F)(F)F)c1,4.3%,-0.1
Nc1nc2c(nc(N3CCOCC3)n2COCCO)c(=O)[nH]1,-0.2%,-0.4
COc1ccc(OC)c(NC(=O)CCc2c(C)nc3c(-c4ccccc4)c(C)nn3c2C)c1,1.7%,-0.7
CC(C)OCCCNC(=O)CCCn1c(SCC(N)=O)nc2c(sc3ccccc32)c1=O,0.5%,-0.4
Cc1ccc(NC(=O)Cn2c(=O)n(Cc3ccc(C(=O)NCc4ccc5c(c4)OCO5)cc3)c(=O)c3ccccc32)cc1,1.5%,0.3
CCC(Oc1ccccc1)C(=O)Nc1cc(-c2ccccc2OC)nn1-c1ccccc1 (stereo not drawn),0.0%,0.4
CN(CC(=O)NCc1ccc(Cl)cc1)S(=O)(=O)c1ccc2[nH]c3c(c2c1)CCCC3,6.8%,4.2
COc1ccc2c(c1)c1c(c(=O)n(-c3ccc(C)cc3)c(=O)n1CC(=O)c1ccc(Cl)cc1)n2C,2.3%,2.9
CC1Cc2ccccc2N1C(=O)CSc1nc2ccc(NC(=O)COc3ccccc3)cc2s1 (stereo not drawn),0.9%,-0.5
CCCS(=O)(=O)c1c(S(=O)(=O)CCC)c2cc(CC)ccn2c1C(=O)c1ccc(Cl)cc1,4.5%,1.1
COc1cc(NC(=O)N(Cc2ccco2)C2CCN(C(C)=O)CC2)cc(OC)c1OC,7.2%,-0.8
COc1ccc(-c2noc(-c3ccc(C)cc3Cl)n2)cc1OC,1.3%,0.2
Cc1c(Cl)cccc1NC(=O)Cn1cc2c(n1)CCCC2,0.0%,-1.1
O=C(NCCc1nc2ccccc2n1CCCOc1ccc2ccccc2c1)C1CCCCC1,?,-0.7
O=C(O)CC(CC(=O)O)c1ccc2c(c1)OCO2,-0.8%,-0.2
O=C(NCCc1ccccc1)c1cc(Sc2ccc(F)cc2F)nc2ccccc12,1.7%,1.2
O=C(Nc1ccccc1)C1CCN(S(=O)(=O)c2ccc3c(c2)CCCN3C(=O)C2CCC2)CC1,0.0%,0.8
Cc1ccccc1CN1C(=O)c2ccccc2Sc2ccc(C(=O)OCc3ccco3)cc21,5.6%,1.5
CCN(C(=O)C(NS(=O)(=O)c1ccc(Br)s1)c1ccccc1)c1ccc(C)c(C)c1 (stereo not drawn),7.5%,0.2

# Compound activity (PubChem)
